CXCR6 block = blocks human CXCR6 beta-arrestin recruitment | O00574 | CHO-K1 PathHunter CXCR6 beta-arrestin, luminescence | inhibition, % at 20 µM | 0.36% of 360,000 active | AID 602244; in the data active = inhibition above about 34%, passing the limit was not always enough;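 also: antagonist mode with CXCL16 agonist at 10 nM final; 0% = 10 nM CXCL16 with DMSO and 100% = unstimulated wells without agonist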
Target sequence (O00574 whole entry, looked up): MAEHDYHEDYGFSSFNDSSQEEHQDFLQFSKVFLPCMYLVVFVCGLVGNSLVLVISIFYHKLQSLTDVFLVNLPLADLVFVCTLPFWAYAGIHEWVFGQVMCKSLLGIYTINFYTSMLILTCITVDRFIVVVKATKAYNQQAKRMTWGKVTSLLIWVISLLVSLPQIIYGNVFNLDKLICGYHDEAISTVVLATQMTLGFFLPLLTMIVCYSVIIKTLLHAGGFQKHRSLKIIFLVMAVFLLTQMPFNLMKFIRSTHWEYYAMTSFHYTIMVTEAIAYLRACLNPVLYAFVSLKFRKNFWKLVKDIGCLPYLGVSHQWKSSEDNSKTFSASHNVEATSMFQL
Gli-Sufu antag = Gli-Sufu pathway antagonism; Sufu-KO-LIGHT fibroblasts, Gli luciferase reporter luminescence; 0.74% of 340,000 active; inhibition, % at 5 µM;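 active = inhibition above about 55%, limit read from the data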;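 also: 0% = DMSO-treated cells and 100% = wells with medium but no cells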
APOBEC3A inh = human APOBEC3A DNA deaminase inhibition; inhibition, % at 20 µM; P31941; 0.41% of 330,000 active; recombinant A3A, FAM/TAMRA ssDNA deamination fluorescence;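 active = at least 40% inhibition at 20 µM here, with at most 30% in a related deaminase screen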;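 also: plate controls were A3A with DMSO for no effect and wells lacking A3A enzyme for full effect; some results filed as inactive read as strong as hits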
Target sequence (P31941 whole entry, looked up): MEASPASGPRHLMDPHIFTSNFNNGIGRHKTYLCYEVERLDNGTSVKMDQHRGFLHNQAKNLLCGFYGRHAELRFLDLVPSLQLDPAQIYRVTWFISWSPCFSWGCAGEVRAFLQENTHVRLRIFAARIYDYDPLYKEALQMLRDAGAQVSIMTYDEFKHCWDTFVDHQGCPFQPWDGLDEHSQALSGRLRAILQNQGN
GRIN3A LBD mod = NR3A (human) ligand-binding domain modulation. NR3A LBD differential scanning fluorimetry, Tm shift; 0% = protein alone, 100% = glycine-bound protein. 2.5% of 340,000 active. Tm shift relative to glycine control, % at 25 µM;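 active = melting temperature shift of at least 10% of the positive control shift, at one fixed dose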
CCR6 antag = antagonists of human CCR6 receptor; P51684; CHO-K1 CCR6 PathHunter beta-arrestin, luminescence, CCL20-stimulated; inhibition, % at 20 µM; 0.49% of 340,000 active;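 active = compounds whose inhibition of the agonist-driven luminescence signal at 20 µM reaches about 50%, limit read from the data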;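 also: cells stimulated with CCL20 at 14 nM final; plate controls were DMSO with CCL20 for no effect and DMSO without agonist for full effect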
Target sequence (P51684 whole entry, looked up): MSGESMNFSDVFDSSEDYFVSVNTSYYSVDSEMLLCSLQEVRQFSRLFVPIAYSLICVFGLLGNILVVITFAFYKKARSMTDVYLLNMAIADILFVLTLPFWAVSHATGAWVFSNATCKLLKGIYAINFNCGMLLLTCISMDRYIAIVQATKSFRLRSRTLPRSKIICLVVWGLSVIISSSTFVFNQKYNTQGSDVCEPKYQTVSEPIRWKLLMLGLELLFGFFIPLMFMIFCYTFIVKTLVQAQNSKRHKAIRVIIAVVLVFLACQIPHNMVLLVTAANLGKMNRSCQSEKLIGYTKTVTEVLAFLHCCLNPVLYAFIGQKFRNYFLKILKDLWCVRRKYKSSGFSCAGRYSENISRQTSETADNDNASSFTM
EBI2 antag = blocks human EBI2 receptor beta-arrestin signaling; P32249; EBI2 beta-arrestin recruitment, luminescence, 7a,25-OHC stimulated; inhibition, % at 5 µM; 0.81% of 360,000 active; in the data active = inhibition above about 38%;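 also: enzyme fragment complementation signal reports receptor beta-arrestin coupling in cells; 0% = agonist plus DMSO wells and 100% = wells without agonist; some results beyond the cut were filed as inactive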
APOBEC3G inh = inhibitors of human APOBEC3G DNA deaminase; Q9HC16; recombinant A3G, ssDNA deamination FAM/TAMRA fluorescence; inhibition, % at 20 µM; 0.28% of 330,000 active; AID 493012;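 active = inhibition of at least 40% at 20 µM, with no more than 30% in the related APOBEC3A deaminase screen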;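 also: plate controls were DMSO wells with A3G for no effect and wells lacking A3G enzyme for full effect; some compounds called inactive have numbers as strong as hits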
Numbers without * were called inactive; · = not tested or not shown; & = joins results of further samples; ! = not confirmed by another sample. Some of the compounds tested. The share of hits here may be higher or lower than overall.

Molecule,CXCR6 block,Gli-Sufu antag,APOBEC3A inh,GRIN3A LBD mod,CCR6 antag,EBI2 antag,APOBEC3G inh
Clc1ccc(-c2noc(CN3CCN(c4ccccc4)CC3)n2)cc1,-10,3,16,-1,0,4,-2
CCOC(=O)/C(C#N)=C\C1=C(N2CCCC2)CC(C)(CC)OC1 (stereo not given),-1,1,-7,1,9,-14,-6
N#CCOc1ccccc1P(=O)(c1ccccc1)c1ccccc1,-3,13,-1,-1,10,1,0
COc1ccc(CNC(=O)C(c2ccc(O)cc2)N(Cc2ccco2)C(=O)c2snc(C(N)=O)c2N)cc1 (stereo not given),0,7,1,0,8,-20,-5
Cc1cccc(-c2c(NC(=O)c3ccco3)oc3ccc(Cl)cc3c2=O)c1,6,-12,-3,-10,35,1,-3
COc1ccc(C(=O)N/C(=C/c2cccs2)c2nc3ccccc3[nH]2)cc1OC,-2,7,1,0,15,1,0
CN(CC(=O)Nc1ccc(Cl)c(Cl)c1)C(=O)CNC(=O)Cc1ccccc1,0,0,-4,-1,0,-4,-10
C=CCN1C2CCCC1CC(NC(=S)Nc1cccc(OC)c1)C2 (stereo not given),-8,19,-4,-2,-15,-7,-7
CCNC(=S)NNc1nncc2ccccc12,6,-5,-5,1,-7,-1,-8
O=C(O)c1cccc(NC(=O)c2ccc3c(c2)C(=O)N(c2ccccc2)C3=O)c1,4,11,-3,0,6,1,-2
NS(=O)(=O)c1cc2c(cc1Cl)NCNS2(=O)=O,3,-2,-5,2,0,-1,-8
O=C(Cc1ccc(Cl)cc1)Nc1ccc(N2CCN(C(=O)c3ccco3)CC2)cc1,-5,-3,-3,1,-5,-1,-9
COc1cc(-c2noc(C)c2C(=O)NCCCN2CCCC2=O)cc(OC)c1OC,1,2,-2,0,16,-5,-7
CSc1nnc(NC(=O)c2nc(S(=O)(=O)Cc3ccccc3F)ncc2Cl)s1,-3,5,-5,5,1,15,-2
NC(N)=NC(=O)c1nc(Cl)c(N)nc1N,-4&2&-7,12&-6&-18,2&1&-1,-2&0&-1,4&15&2,-2&-4&-6,0&-3&-7
CCOc1ccccc1C(=O)N1CCOCC1,-2,-2,-1,1,13,-5,0
CCC(C)(CN(C)C)OC(=O)c1ccccc1 (stereo not given),4,14,4,-1,-2,8,-6
Cc1cc(C(F)(F)F)nc(SCC(=O)NC2=NC(=O)C(C)S2)n1 (stereo not given),-5,22,-2,3,2,-8,-4
Cc1cc(C)cc(C(=O)Nn2cnnc2)c1,3,-19,-5,0,-3,1,-5
CCOC(=O)C1CCCN(CC(=O)N(C)c2c(N)n(Cc3ccccc3)c(=O)[nH]c2=O)C1 (stereo not given),8,10,1,2,3,0,-4

Reprinted at random: 7 compounds from above.
Molecule,CXCR6 block,Gli-Sufu antag,APOBEC3A inh,GRIN3A LBD mod,CCR6 antag,EBI2 antag,APOBEC3G inh
Cc1cccc(-c2c(NC(=O)c3ccco3)oc3ccc(Cl)cc3c2=O)c1,6,-12,-3,-10,35,1,-3
NC(N)=NC(=O)c1nc(Cl)c(N)nc1N,-4&2&-7,12&-6&-18,2&1&-1,-2&0&-1,4&15&2,-2&-4&-6,0&-3&-7
N#CCOc1ccccc1P(=O)(c1ccccc1)c1ccccc1,-3,13,-1,-1,10,1,0
Cc1cc(C)cc(C(=O)Nn2cnnc2)c1,3,-19,-5,0,-3,1,-5
CCOC(=O)/C(C#N)=C\C1=C(N2CCCC2)CC(C)(CC)OC1 (stereo not given),-1,1,-7,1,9,-14,-6
COc1cc(-c2noc(C)c2C(=O)NCCCN2CCCC2=O)cc(OC)c1OC,1,2,-2,0,16,-5,-7
O=C(Cc1ccc(Cl)cc1)Nc1ccc(N2CCN(C(=O)c3ccco3)CC2)cc1,-5,-3,-3,1,-5,-1,-9

Remaining list, next part
Molecule,CXCR6 block,Gli-Sufu antag,APOBEC3A inh,GRIN3A LBD mod,CCR6 antag,EBI2 antag,APOBEC3G inh
CCc1cccc(N(C(=O)c2csnn2)C(C(=O)NC(C)(C)C)c2ccncc2)c1 (stereo not given),-2,3,-1,-2,-5,20,-8
COc1ccc(C)cc1NC(=O)n1ncc2c(C)cccc21,-9,-19,0,3,9,22,12
COc1ccc(CNC(=O)CCC(=O)c2ccccc2)cc1,8,0,-4,2,3,-4,-7
CC1(C)S[C@@H]2[C@H](NC(=O)[C@H](N)c3ccccc3)C(=O)N2[C@H]1C(=O)O,1&7,0&7,6&5,1&-1,8&-5,-2&-8,75*!
O=C(O)c1ccc(Cl)c(NCc2cccnc2)c1,2,-15,2,-2,5,-2,-1
Cc1ccc(NC(=O)CCCn2c(=O)[nH]c3ccsc3c2=O)cc1,-5,23,-2,0,7,-19,-11
O=C(Nc1ccsc1C(=O)NC1CC1)c1ccccc1,-2,2,2,-3,-8,3,2
O=C(Nc1cnccn1)Nc1ccc(Cl)cc1Cl,3,-30,4,-3,5,-7,0
O=c1c(-c2ccc(O)cc2)coc2cc(O)ccc12,-5,-37,5,1,7,1,-1
CC(=O)C1CCC2C3CCC4CC(=O)CCC4(C)C3C(O)CC12C (stereo not given),0,8,·,2,18,-4,·
COc1ccc(N2CCN(C(=O)CC3NC4CCCCC4NC3=O)CC2)cc1 (stereo not given),-11,3,2,-3,-14,1,2
O=C(c1ccco1)N(Cc1ccc([N+](=O)[O-])cc1)c1ccc(Br)cc1,2,24,-1,4,33,7,-4
Cc1ccccc1Nc1nnc(SCC(=O)NCc2ccco2)s1,1,17,7,0,0,7,2
CCOc1ccc(CC(=O)Nc2c3c(nn2C(C)(C)C)CS(=O)(=O)C3)cc1,-5,-5,2,0,4,0,-8
O=C(CCS(=O)(=O)c1ccc(Br)cc1)N1CCN(c2ccccc2F)CC1,1,9,1,-3,2,7,-5
Nc1c2c(nn1-c1ccc(C(=O)O)cc1)CNC2,2,15,-1,-2,3,-1,-3
COC(=O)COc1ccc2cc(-c3ccc(OC)cc3)c(=O)oc2c1,-3,1,-1,0,-20,-7,-1
Cc1ccc(S(=O)(=O)N[C@H](C(=O)N2CCC(C(=O)N3CCC[C@H]3C(=O)O)CC2)C(C)C)cc1,4,·,·,-2,4,0,·
CC1(C)CC(=O)C2=C(C1)OC(N)=C(C#N)C2c1ccccc1OC(=O)N1CCOCC1 (stereo not given),1,4,1,-6,8,-8,1
O=C1C2C3c4ccccc4C(c4ccccc43)C2C(=O)N1Cc1ccccn1 (stereo not given),-5,11,0,-1,7,2,-11

Other compounds.
Molecule,CXCR6 block,Gli-Sufu antag,APOBEC3A inh,GRIN3A LBD mod,CCR6 antag,EBI2 antag,APOBEC3G inh
Cc1ccccc1CS(=O)(=O)Cc1ccc(C(=O)NCCCN2CCOCC2)o1,-7,-1,0,2,-13,-1,-4
NC(=O)c1cccnc1Nc1ccccc1Cl,2,-10,-1,0,10,0,-9
CC(C)c1ccc(NC(=O)COC(=O)C2=COCCO2)cc1,-16,0,-3,-1,0,1,-5
c1ccc(N2CC3COc4ccccc4C3=N2)cc1 (stereo not given),-10,-27,·,17*,-1,3,·
COc1cc(-c2nnc(COC(=O)c3cccn3C)o2)cc(OC)c1OC,7,5,-1,-1,13,-7,-11
O=C(CSCc1ccc(F)cc1)N1CCN(c2ccccc2)CC1,1,-13,1,-29,4,8,-3
COc1ccc(-n2nc3c(c2NC(=O)C2CCCC2)CS(=O)(=O)C3)cc1,-2,-3,-1,3,17,4,-6
CCOc1cc(N2CCOCC2)c(OCC)cc1NC(=O)c1nn(CC)c(=O)c2ccccc12,-4,41,0,-1,-7,20,-6
CC(C)(C)c1cc(NC(=O)COC(=O)c2ccccc2O)n(-c2ccccc2)n1,3,·,·,·,·,4,·
CC(CC(=O)Nc1nc2ccccc2[nH]1)c1ccccc1 (stereo not given),4,7,2,0,-2,7,1
Cc1cccc(NC(=O)COC(=O)C2C3CC4OC(=O)C2C4C3)c1C (stereo not given),-2,23,-1,-1,14,13,8
Cc1csc(SCC(=O)NC2CCC(C)CC2)n1 (stereo not given),0,-7,-2,-2,7,14,-6
O=C(CN1CCN(C/C=C/c2ccccc2)CC1)Nc1cc([N+](=O)[O-])ccc1Cl,-7,17,-2,0,12,-5,-8
COC(=O)NNC(=S)NCc1ccc(C)cc1,-8,-5,1,-2,2,-9,-5
CCCC(=O)Nc1ccc2c(c1)nc1n2CCN(C2CCCCC2)C1,-2,-19,-6,0,11,5,-5
NC(=O)c1ccc(NC(=O)CS(=O)(=O)c2cn(CC(=O)N3CCCCC3)c3ccccc23)cc1,5,-5,-1,2,-4,-14,-10
O=C(c1ccc(F)cc1)C1CCN(C(=O)c2ccc(Cl)cc2)CC1,-7,-4,·,-2,19,83*,·
Cn1c(NCCN2CCOCC2)nc2c1c(=O)n(Cc1cccc(Cl)c1)c(=O)n2C,-10,0,0,-1,2,-2,-3
NC(=O)NCC(=O)N1CCN(S(=O)(=O)c2ccc(Cl)s2)CC1,1,1,0,1,0,2,-3
COc1ccc(C(=O)COC(=O)c2ccc3c(c2)OCCO3)c(OC)c1,-8,-14,3,4,15,4,-1

(listing goes on)
Molecule,CXCR6 block,Gli-Sufu antag,APOBEC3A inh,GRIN3A LBD mod,CCR6 antag,EBI2 antag,APOBEC3G inh
Cc1cc(OC(C)C(=O)NCCCN2CCOCC2)c2c(C)c(C)c(=O)oc2c1 (stereo not given),0,-3,0,-2,2,-2,-2
Cc1ccc(NC(=O)CCC(=O)NNC(=S)Nc2ccc(F)cc2F)cc1C,12,-2,2,-1,22,-7,-4
CCN1CCCC1CNC(=O)c1cc(S(N)(=O)=O)ccc1OC (stereo not given),-4,0,7,0,7,-3,-5
O=C(NCCN1CCC(n2c(=O)[nH]c3ccccc32)CC1)c1ccc2ccccc2c1,13,·,·,·,·,19,·
CCCOc1ccc(CNC(=O)C2CCN(c3nnc(N4CCCC4=O)s3)CC2)cc1,-6,-2,0,0,-6,1,2
COc1ccc(OC2C(=O)N(CCc3ccc(OC)c(OC)c3)C2c2ccc3c(c2)OCO3)cc1 (stereo not given),8,-7,-2,4,2,23,-7
C=CCn1c(=S)[nH]c2cc(C(=O)N3CCN(c4ccccc4OC)CC3)ccc2c1=O,9,8,2,0,7,16,0
CCc1cccc(NC(=O)CCNS(=O)(=O)c2cc(Br)cnc2N)c1,-4,-10,0,13*,9,3,-4
Cc1nn(C)cc1C(C(=O)NC1CCCCC1)N(C(=O)c1cnccn1)c1ccc(Oc2ccccc2)cc1 (stereo not given),-1,7,-2,-1,-40,-5,-7
CNc1ccc(Oc2nc([N+](=O)[O-])nn2C)cc1,-11,2,1,-2,-8,-14,-5
CCn1c(C)cc(C(=O)CSc2nnc(-c3ccco3)o2)c1C,1,-32,-2,-1,15,-2,-4
COc1cc2nc(C3CCC3)nc(N3CCN(c4ccccc4OC)CC3)c2cc1OC,9,4,3,-8,14,46*,-1
CCCc1cc(C(N)=O)c(NC(C)=O)s1,-6,-9,9,-104,-10,-11,1
O=C(O)C1CC=CCC1C(=O)NCc1cn2ccccc2n1 (stereo not given),-5,5,-3,5,-6,-3,-11
CCOC(=O)/C(C#N)=C/C1=C(N2CCCC2)CC(C)(CC)OC1 (stereo not given),4,4,-5,1,10,-9,-5
CCn1cc(C(=O)O)c(=O)c2cc(F)c(N3CCNCC3)cc21,3,·,1,·,·,-12,1
O=C(Nc1ncn[nH]1)c1cccc(F)c1,-11,-9,0,1,2,-14,-4
CN(C)c1ccc(O)c2c1CC1CC3[C@@H](N(C)C)C(=O)C(C(N)=O)C(=O)[C@]3(O)C(=O)C1C2=O (stereo not given in full),-17,8,54*,-3,10,-3,12
CC12CCC(=O)C=C1CCC1C2C(O)CC2(C)C1CCC2(O)C(=O)CO (stereo not given),1,16,2,0,20,6,-4
O=C(Nc1ccn(CCCN(CCCn2ccc(NC(=O)OCc3ccccc3)nc2=O)CCc2cc3ccccc3[nH]2)c(=O)n1)OCc1ccccc1,8,10,·,-4,10,-2,·
